Screens: PubChem BioAssay, ICCB-Longwood Screening Facility, Harvard Medical School
MgrA DNA FP: modulators of Staphylococcus aureus MgrA DNA binding. fluorescence polarization. inhibition, %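 (about 10 µg/mL by stock and volumes)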. 84,000 tested, 0.13% active;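 active = above 50% in either of two replicates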;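 also: 0% = protein plus DNA without compound and 100% = DNA alone without protein; higher means less MgrA bound to DNA so lower polarization; one replicate is shown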
Sa helicase inh: blocks Staphylococcus aureus DNA helicase; purified S. aureus helicase, fluorescence unwinding assay; about half of the hits fall short of the stated cut; inhibition, %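 (tested at about 80 µM)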; 120,000 tested, 0.05% active;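 active = both duplicates at 50% or more, or one of them with a favoured structure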;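 also: 0% = mean of negative control wells and 100% = mean of positive control wells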
* = called active by the depositor; & = joins results of further samples.

`N#Cc1ccc(C(O)COc2ncnc3cc(Cl)ccc23)cc1` (stereo unspecified) gave MgrA DNA FP 0.7.
For O=C(COc1cccc2c1CCN(Cc1ccccc1)C2=O)NCc1ccco1 the results were Sa helicase inh 11.
`CC(C(=O)Nc1ccccc1)N(c1ccccc1)S(C)(=O)=O` (stereo unspecified) gave MgrA DNA FP 1.0 and Sa helicase inh -9.
Cc1ccc(S(=O)(=O)c2c(Cl)sc(=O)n2C)cc1 was read as Sa helicase inh 11.
`O=C1N=c2ccccc2=C1c1sc(=O)n(-c2ccccc2)c1O` gave MgrA DNA FP 1.7 and Sa helicase inh 29.
For C/C(COc1ccc(-c2csnn2)cc1)=N\NC(N)=S the results were Sa helicase inh 27.
For Nc1ccc(Cc2nc3ccc(C(=O)O)cc3[nH]2)cc1 the results were Sa helicase inh 15.
Screening Cc1[nH]c2ccccc2c1CN1CCc2ccccc2C1 returned MgrA DNA FP -0.8.
`CCN(CC)C(=O)C(Sc1nnc(C2CC2)n1C1CC1)c1ccccc1` (stereo unspecified) gave Sa helicase inh 12.
`O=C(Nc1ccc(F)cc1)NC1CCN(CC(=O)c2ccc(F)cc2)CC1` gave MgrA DNA FP 4.1 and Sa helicase inh -4.
O=S(=O)(Nc1ccc(CSc2ccccc2)cc1)c1ccc2c(c1)OCCO2 was read as MgrA DNA FP -0.1 and Sa helicase inh -13.
`O=C(Nc1ccc2c(c1)OCC1CCCN21)C1=Cc2ccccc2OC1` (stereo unspecified) gave Sa helicase inh 19.
O=C(CN1C(=O)CCC1=O)Nc1nc(-c2cccs2)cs1 was read as Sa helicase inh -13.
For O=C(c1ccc2c(c1)S(=O)(=O)N=C1CCCCCN12)N1CCN(S(=O)(=O)c2ccc(F)c(F)c2)CC1 the results were Sa helicase inh -7.
COC(=O)/C(=C/c1ccc2c(c1)OCO2)NC(=O)c1ccc(C(C)(C)C)cc1 was read as MgrA DNA FP -0.6 and Sa helicase inh 7.
CCOC(=O)C1=C(CC)NC2=C(C(=O)CCC2)C1c1ccccc1 (stereo unspecified) was read as MgrA DNA FP -0.8 and Sa helicase inh 11.
COc1ccc(N(C(=O)Cc2ccc(OC)c(OC)c2)C2C=CS(=O)(=O)C2)cc1 (stereo unspecified) was read as Sa helicase inh 3.
For CC(NCCC(c1ccccc1)c1ccccc1)c1ccccc1 (stereo unspecified) the results were MgrA DNA FP 0.6&6.6.
O=C(O)c1cc(-c2ccco2)nc2ccccc12 was read as MgrA DNA FP 3.9 and Sa helicase inh -6.
`O=C(Oc1ccccc1-c1nnco1)c1ccc(C(F)(F)F)cc1` gave Sa helicase inh -11.

The final 2 entries of the section above come first, to join the parts.
O=C(O)c1cc(-c2ccco2)nc2ccccc12 was read as MgrA DNA FP 3.9 and Sa helicase inh -6.
`O=C(Oc1ccccc1-c1nnco1)c1ccc(C(F)(F)F)cc1` gave Sa helicase inh -11.
Cc1cccc(OCC(O)CN2CC(C)OC(C)C2)c1 (stereo unspecified) was read as Sa helicase inh -1.
CC(C)C(C(=O)O)N1C(=O)/C(=C/c2ccccc2)SC1=S (stereo unspecified) was read as Sa helicase inh 6.
For O=C(O)c1ccc(NC(=O)C2CC(=O)N(Cc3ccccc3)C(=Nc3ccc(F)cc3)S2)cc1 (stereo unspecified) the results were MgrA DNA FP 0.9.
C=CCNC(=O)c1oc2ccc(S(=O)(=O)N3CCCCCC3)cc2c1C was read as Sa helicase inh 19.
CCOc1ccc(S(=O)(=O)NN=C2CCN(C(C)=O)CC2)cc1 was read as Sa helicase inh 6.
Screening COC(=O)C1CCN(S(=O)(=O)c2cccc3nsnc23)CC1 returned Sa helicase inh -2.
NC(=NCc1ccco1)NC(=O)c1ccc(Cl)cc1 was read as MgrA DNA FP 0.3 and Sa helicase inh 10.
Cc1cccc(N(C)Cc2nnc(-c3ccccc3Cl)o2)c1 was read as Sa helicase inh -30.
Screening c1cn2c(NC3CCCC3)c(-c3ccc(N4CCOCC4)cc3)nc2cn1 returned Sa helicase inh -20.
For CC(C)CC(=O)NC(=S)Nc1ccc(S(=O)(=O)N=C(N)N)cc1 the results were MgrA DNA FP 3.5 and Sa helicase inh 13.
For O/N=C(/Cn1nnc(N2CCCC2)n1)c1ccc(Cl)cc1 the results were MgrA DNA FP -0.2.
Screening CC1CCc2nn(CC(=O)NCCC3=CCCCC3)cc2C1 (stereo unspecified) returned Sa helicase inh -6.
COc1ccc(Cl)cc1NC(=O)CSCc1ccco1 was read as MgrA DNA FP -0.5.
Screening Cc1cc(/C=C(\C#N)S(=O)(=O)c2ccccc2)c(C)s1 returned MgrA DNA FP -0.9.
CCN=C1S/C(=C\c2ccc(N3CCOCC3)cc2C)C(=O)N1CC was read as MgrA DNA FP 0.2 and Sa helicase inh 1.
N#Cc1c(N)nc(SCC(=O)OCc2ccccc2)c(C#N)c1-c1ccc(O)cc1 was read as MgrA DNA FP 3.1.
`O=C(O)C1CC(c2ccccc2O)=NO1` (stereo unspecified) gave MgrA DNA FP -4.0 and Sa helicase inh -10.
CCC(=O)Oc1ccc2c(c1)nc(C)n2CC was read as MgrA DNA FP -0.8 and Sa helicase inh -2.
`Cc1nc(Cc2nnc(SC(C)c3nc4scc(-c5ccccc5)c4c(=O)[nH]3)o2)cs1` (stereo unspecified) gave Sa helicase inh -10.
Nc1ccc2nc(NC(=O)C34CC5CC(CC(C5)C3)C4)sc2c1 was read as MgrA DNA FP 1.5 and Sa helicase inh 0.

5 entries picked at random from the list so far, as already listed:
Nc1ccc2nc(NC(=O)C34CC5CC(CC(C5)C3)C4)sc2c1 was read as MgrA DNA FP 1.5 and Sa helicase inh 0.
Screening c1cn2c(NC3CCCC3)c(-c3ccc(N4CCOCC4)cc3)nc2cn1 returned Sa helicase inh -20.
Cc1cccc(N(C)Cc2nnc(-c3ccccc3Cl)o2)c1 was read as Sa helicase inh -30.
CCC(=O)Oc1ccc2c(c1)nc(C)n2CC was read as MgrA DNA FP -0.8 and Sa helicase inh -2.
CCN=C1S/C(=C\c2ccc(N3CCOCC3)cc2C)C(=O)N1CC was read as MgrA DNA FP 0.2 and Sa helicase inh 1.

Gathered by group, the compounds so far with a COOH group (five)
For Nc1ccc(Cc2nc3ccc(C(=O)O)cc3[nH]2)cc1 the results were Sa helicase inh 15.
O=C(O)c1cc(-c2ccco2)nc2ccccc12 was read as MgrA DNA FP 3.9 and Sa helicase inh -6.
CC(C)C(C(=O)O)N1C(=O)/C(=C/c2ccccc2)SC1=S (stereo unspecified) was read as Sa helicase inh 6.
For O=C(O)c1ccc(NC(=O)C2CC(=O)N(Cc3ccccc3)C(=Nc3ccc(F)cc3)S2)cc1 (stereo unspecified) the results were MgrA DNA FP 0.9.
`O=C(O)C1CC(c2ccccc2O)=NO1` (stereo unspecified) gave MgrA DNA FP -4.0 and Sa helicase inh -10.

Next structures
`COc1cc(C(=O)Nc2ccccc2Sc2ccc(Cl)cc2[N+](=O)[O-])cc(OC)c1OC` gave MgrA DNA FP -4.0.
Screening O=C(O)/C=C/C(=O)N1CCN(S(=O)(=O)c2ccccc2)CC1 returned Sa helicase inh 13.
For O=C(NCC(=O)c1cccs1)c1ccc(-c2ccccc2F)o1 the results were Sa helicase inh 6.
COc1ncccc1C(=O)Nc1ccccc1Cl was read as MgrA DNA FP -0.7.
`O=C(Nc1ccc(Br)cn1)c1ccccc1` gave MgrA DNA FP 1.6 and Sa helicase inh 18.
For CCCC(=O)c1ccc(-c2ccccc2)cc1 the results were MgrA DNA FP -1.0.
For Nc1cnc2cccc3c2c1-c1ccccc1C3=O the results were MgrA DNA FP 22 and Sa helicase inh -83.
COC(=O)c1ccc(C)c(NC(=O)C(C)Sc2ccccc2)c1 (stereo unspecified) was read as MgrA DNA FP -2.6 and Sa helicase inh -7.
`CC(Sc1nnc(-c2ccco2)n1Cc1ccccc1)c1nc2ccccc2c(=O)[nH]1` (stereo unspecified) gave Sa helicase inh 7.
`Cc1ccc(CC2SC(=Nc3ccccc3)NC2=O)cc1` (stereo unspecified) gave MgrA DNA FP -0.7.
`Cn1nnnc1SCC(=O)NC(C(=O)O)(c1ccccc1)c1ccccc1` gave Sa helicase inh 17.
For Cc1sc(NC(=O)c2cc3n(n2)C(C(F)(F)F)CC(c2cccs2)N3)c(C(=O)OC(C)C)c1C (stereo unspecified) the results were MgrA DNA FP -1.3.
CC(=O)N1CCc2cc(C(=O)O)ccc21 was read as Sa helicase inh -13.
C=CCn1c(C)cc(C(=O)COC(=O)c2ccc(N3CCCC3=O)cc2)c1C was read as Sa helicase inh 23.
`O=c1c2ccccc2c(-c2ccc(F)cc2)nn1CCO` gave MgrA DNA FP 1.2.
Screening COc1ccccc1C1CCN(S(=O)(=O)c2ccc(F)cc2F)CC1 returned MgrA DNA FP -1.3.
Cc1ccc(N2C(=O)c3ccc(C(=O)NCCN4CCOCC4)cc3C2=O)cc1 was read as Sa helicase inh 13.
`COCc1cc(C)nc(SC)c1C#N` gave MgrA DNA FP 1.7 and Sa helicase inh 7.
Screening O=C(Cc1ccc2c(c1)OCCO2)N1CCc2ccccc21 returned Sa helicase inh -11.
Screening Nc1nc(OCC(F)(F)F)nc(OCC(F)(F)F)n1 returned MgrA DNA FP 1.7 and Sa helicase inh 1.

3 structures from above, arranged by molecular weight, lowest first.
`COCc1cc(C)nc(SC)c1C#N` gave MgrA DNA FP 1.7 and Sa helicase inh 7.
`CCN(CC)C(=O)C(Sc1nnc(C2CC2)n1C1CC1)c1ccccc1` (stereo unspecified) gave Sa helicase inh 12.
`Cc1nc(Cc2nnc(SC(C)c3nc4scc(-c5ccccc5)c4c(=O)[nH]3)o2)cs1` (stereo unspecified) gave Sa helicase inh -10.

Next compounds follow:
Screening O=C(OCc1cc(=O)n2c(n1)sc1ccccc12)c1ccccc1 returned Sa helicase inh -11.
`CC(=O)NS(=O)(=O)c1ccc(NC(=O)[C@@H]2CCCC[C@@H]2C(=O)O)cc1` gave Sa helicase inh 6.
For O=C(Oc1ccc(-c2nnco2)cc1)c1sc2ccccc2c1Cl the results were Sa helicase inh 12.
For COc1ccc(CCNc2ncnc3c2oc2ccccc23)cc1 the results were Sa helicase inh -6.
CCN(CC)c1nc2ccccc2n(Cc2cccc(OC)c2)c1=O was read as Sa helicase inh 3.
CC(=O)Nc1ccc(NS(=O)(=O)c2ccc(-c3csc(C)n3)s2)cc1 was read as MgrA DNA FP 3.7.
CC(=O)Nc1ccc2c(c1)C1C=CCC1C(c1ccccc1[N+](=O)[O-])N2 (stereo unspecified) was read as MgrA DNA FP 1.3.
For CCC(C)C(NS(=O)(=O)c1cccc(C(F)(F)F)c1)C(=O)NCc1ccccc1 (stereo unspecified) the results were MgrA DNA FP -2.6 and Sa helicase inh 1.
O=C(CN1C(=O)C2CC=CCC2C1=O)NCc1cccs1 (stereo unspecified) was read as Sa helicase inh -4.
Screening NC(=O)c1ccccc1NS(=O)(=O)c1cccc(C(F)(F)F)c1 returned MgrA DNA FP -0.2 and Sa helicase inh -8.
COc1ccc(NCc2nnc(SCC(=O)c3ccc(C)cc3)o2)cc1 was read as MgrA DNA FP 0.5 and Sa helicase inh -3.
`COC(=O)c1ccccc1NC(=O)C(C)C` gave MgrA DNA FP 29 and Sa helicase inh 11.
Screening N#C/C(=C(/O)CSc1nnc(Cc2cccs2)n1C1CCCCC1)c1nc2ccccc2[nH]1 returned Sa helicase inh -16.
For CCOC(=O)CSc1nc2c(C)ccc(C)c2cc1C#N the results were MgrA DNA FP 0.9 and Sa helicase inh -1.
`O=C1C/C(=N\NC(=S)Nc2ccc(S(=O)(=O)N3CCOCC3)cc2)c2ccccc21` gave Sa helicase inh -2.
For CCC1S/C(=N\S(=O)(=O)c2ccccc2)N(C2CCCCC2)C1=O (stereo unspecified) the results were Sa helicase inh 10.
`COC(=O)c1ccc(C(=O)Nc2ccc(-c3nc4ccccc4[nH]3)cc2)cc1` gave Sa helicase inh -2.
Screening Cc1cc(NC(=O)[C@H](C)NC(=O)c2ccco2)ccc1Br returned Sa helicase inh 7.
For CC1CCCC(NC(=O)COC(=O)c2ccccc2F)C1C (stereo unspecified) the results were MgrA DNA FP -1.5 and Sa helicase inh -12.
Screening CCc1ccc(NC(=O)C(C)Sc2cccc[n+]2[O-])cc1 (stereo unspecified) returned MgrA DNA FP -1.4 and Sa helicase inh -1.
`OCC(CO)(CO)N=Cc1c(O)ccc2ccccc12` gave MgrA DNA FP 0.3 and Sa helicase inh 13.
For O=C(O)CCC(=O)NCc1ccc(C(=O)O)cc1 the results were Sa helicase inh 23.
O=C(Nc1ccc2oc(-c3cccnc3)nc2c1)c1cccs1 was read as MgrA DNA FP -3.7 and Sa helicase inh -5.
Screening CN1C=NS(=O)(=O)c2ccccc21 returned Sa helicase inh 11.
CC(C)(C)C(=O)CSc1nnc(-c2ccncc2)n1-c1ccccc1 was read as Sa helicase inh 21.
For NC(=O)COC(=O)c1ccc2c(c1)OCO2 the results were Sa helicase inh -11.
`CN(C)c1ccc(C(c2nnnn2CCOC(=O)Nc2ccc(Cl)cc2)N2CCOCC2)cc1` (stereo unspecified) gave MgrA DNA FP 0.2 and Sa helicase inh 10.
Screening Cc1cc(C)n(-c2nc(C(=O)O)cs2)n1 returned MgrA DNA FP -1.2 and Sa helicase inh 2.
CCN1C/C(=N\S(=O)(=O)c2ccccc2)N(CC)C1=O was read as MgrA DNA FP -0.6 and Sa helicase inh -2.
For Nc1n[nH]c(C(=O)N/N=C/c2cccs2)n1 the results were Sa helicase inh 29.
O=C1NS(=O)(=O)C(c2ccccc2)=C1O was read as Sa helicase inh 13.
`CC(C)(C)NC(=O)c1ccc2snnc2c1` gave MgrA DNA FP 1.4 and Sa helicase inh -1.
For CCCC(=O)Nc1cc2nn(-c3ccc(C)cc3)nc2cc1C the results were Sa helicase inh -24.
CC1CCC(C(C)C)C(OC(=O)COC(=O)c2ccncc2)C1 (stereo unspecified) was read as Sa helicase inh -11.
For CCN(c1ccccc1)S(=O)(=O)c1cc([N+](=O)[O-])ccc1N the results were MgrA DNA FP -4.0.
`CCOc1ccc2c(c1)S/C(=C/c1ccccc1O)C2=O` gave Sa helicase inh 15.
`CCc1ccc(C#N)cc1` gave Sa helicase inh 31.
For N#CCN(C(=O)CSc1nc2sc3c(c2c(=O)n1Cc1ccco1)CCCC3)c1ccccc1 the results were Sa helicase inh 6.
For CCOC(=O)c1ccncc1 the results were Sa helicase inh -4.

These rows are one share of the data, so the mix of outcomes need not match the whole.
